High-throughput results deposited in PubChem BioAssay by National Center for Advancing Translational Sciences (NCATS).
VDR inhibitor = inhibitors of human vitamin D receptor; P11473; VDR-SRC2-3 peptide fluorescence polarization, 2 h; Potency, µM, inactives show max response, negative = inhibition, usual class: inhibitors; actives 0.93% (n = 400,000); active means well fitted inhibition curve with a large enough effect; inconclusive means small, poorly fitted or top-dose-only effect, or another doubt; inactive means no such curve, though single readings can be large or run the other way; further: series mostly up to about 120 µM
Target sequence (P11473 whole entry, looked up): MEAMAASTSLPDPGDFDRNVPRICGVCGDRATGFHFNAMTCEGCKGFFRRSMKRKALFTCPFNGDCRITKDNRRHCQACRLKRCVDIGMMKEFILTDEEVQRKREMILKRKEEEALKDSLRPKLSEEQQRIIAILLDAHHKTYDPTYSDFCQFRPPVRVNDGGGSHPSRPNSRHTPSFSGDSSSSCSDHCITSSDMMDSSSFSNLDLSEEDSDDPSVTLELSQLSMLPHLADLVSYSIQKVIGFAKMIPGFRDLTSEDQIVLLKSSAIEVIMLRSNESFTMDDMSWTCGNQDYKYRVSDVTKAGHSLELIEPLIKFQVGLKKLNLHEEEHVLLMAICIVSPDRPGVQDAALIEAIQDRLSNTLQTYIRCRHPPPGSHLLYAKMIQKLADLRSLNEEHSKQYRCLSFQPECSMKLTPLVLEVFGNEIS
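The screen uses fluorescence polarization to detect compounds that interfere with recruitment of the SRC2-3 coactivator peptide to VDR; plates are read after 2 h at room temperature.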
* hit, by the source's call; ? = inconclusive; & = joins results of further samples. On the % scale 0 is the no-effect control and ±100 the full control effect; potency means the concentration at half of the fitted maximal effect. Only part of the results is shown. The share of hits here may be higher or lower than overall.

Compound | VDR inhibitor
COc1ccc(NS(=O)(=O)c2cccc(C(=O)N/N=C/c3ccccn3)c2)cc1 | -3.2%
COc1cccc2sc3ccc(C#CC4(O)CCCCC4)cc3c(=O)c12 | -5.2%
Cc1ccc(/C=N\NC(=O)c2csnn2)cc1 | -7.6%
NC(=O)CC(NC(=O)c1ccccc1)c1ccc(NCc2ccccn2)c([N+](=O)[O-])c1 (centres undefined) | 3.4%
CCOC(=O)c1[nH]nc(-c2c(O)cc(C)cc2O)c1-c1csc(C)n1 | -1.3%
Cc1nn2c(nc1=O)SCC(c1ccccc1)=N2 | -6.3%
CC[C@@H]1CC=C[C@H]2[C@H]1C(=O)N(Cc1ccccc1)[C@H]2c1ccoc1 | ?
CCC(C(=O)Nc1cc(C)on1)c1ccccc1 (centres undefined) | 13.0%
COc1ccccc1C(=O)NNC(=O)c1ccc(F)cc1 | -10.0%
COc1ccc(OC)c(-c2cc(C(=O)Nc3c(C)n(C)n(-c4ccccc4)c3=O)no2)c1 | 11.2%

Going on with the list:
Compound | VDR inhibitor
O=C(COC(=O)C1CC1)NCCc1ccccc1 | -13.4%
O=C(OCC(=O)N1CCCc2ccccc21)C1CCN(S(=O)(=O)c2cccs2)CC1 | 0.2%
C/C=C/C(=O)Nc1nnc(C(C)C)s1 | 11.2%
N/C(=N\OC(=O)c1cccc(Br)c1)c1ccc([N+](=O)[O-])cc1 | ?
O=C(N/N=C/c1cc([N+](=O)[O-])ccc1O)C1CC1 | -8.8%
Cc1ccc(CNC(=O)[C@H](C)NC(=O)C2CCN(C(=O)[C@@H](N)CC(C)C)CC2)cc1 | 1.7%
O=C(O)c1c(F)c(F)c(F)c(F)c1-c1ccc(Cl)cc1 | 0.8%
Cc1cccn2c(=O)c3cc(C(=O)NC(C)(C)C)n(C)c3nc12 | 11.1%
CCCn1c(N)c(N(CCOC)C(=O)CCC2CCCCC2)c(=O)[nH]c1=O | 23.0%
CCOc1ccc(OCC)c(NC(=O)C2CCN(S(=O)(=O)c3cccnc3)CC2)c1 | 10.2%

Other compounds.
Compound | VDR inhibitor
Cc1ccc(C(=O)OCC(=O)NNC(=O)c2ccccc2)c(O)c1 | 6.6%
Cc1sc2nc(SCC(=O)C(C)(C)C)n(Cc3ccco3)c(=O)c2c1C | -20.3%
O=C(N/N=C/c1cccc2ccccc12)c1cccc(F)c1 | 7.5%
O=C(Cn1[nH]c(=O)c2ccccc2c1=O)Nc1cccc(S(=O)(=O)N2CCCCCC2)c1 | 2.1%
COc1cccc(-c2cc(C(=O)Nc3cc(C)nn3-c3ccccc3)no2)c1 | 2.5%&6.2%
COc1ccc(CCNC(=O)C(CC(C)C)NC(N)=O)cc1 (centres undefined) | 10.0%
CCc1ccc(-n2c(C)nnc2SCc2nc(-c3ccc(OC)cc3)no2)cc1 | -0.4%
O=Nc1ccc(NOC(=O)c2ccccc2)cc1 | -7.4%
Cc1nc2ccc(Cl)cc2c(-c2ccccc2Cl)c1CC(=O)O | 1.1%
CC(C)CN(C(=O)c1cc(Cl)nc2ccccc12)C1CCS(=O)(=O)C1 (centres undefined) | -2.9%

The results go on.
Compound | VDR inhibitor
O=S(=O)(c1ccc(N2CC=C(c3ccccc3)CC2)nc1)N1CCCC1 | ?
CCOC(=O)c1c(NC(=O)CSc2cccc[n+]2[O-])sc(C(=O)Nc2ccccc2)c1C | -17.0%
CCOC(=O)c1ccc(-n2ccnc2)c(NC(=O)c2cccc(Br)c2)c1 | -3.0%
CCCCNC(=O)NC1(C(F)(F)F)Oc2ccccc2O1 | -18.1%
COC(=O)c1ccc(NC(=O)c2cc[n+]([O-])cc2)cc1 | -5.1%
CCN(CC)CCCNC(=S)N(Cc1cccs1)Cc1cc2cc3c(cc2[nH]c1=O)OCCO3 | -19.4%
Cc1cccc2cc(COC(=O)C3CCCCC3)c(=O)[nH]c12 | 1.9%
O=C(C[C@H]1C(=O)N(C2CCCCC2)C[C@@H]1Cc1ccccc1)Nc1ccccc1 | 0.8%
Cc1ccc(-n2ncc(-c3nn[nH]n3)c2N)cc1 | -10.1%
COc1cc(NC(=O)C2CCCCC2)c(OC)cc1NC(=O)c1ccco1 | -16.2%

Next section.
Compound | VDR inhibitor
Cc1cccc(Cn2c(CN3CCN(Cc4ccccc4)CC3)nc3c2c(=O)[nH]c(=O)n3C)c1 | 0.2%
O=[N+]([O-])c1cccc(C2(O)COc3ccccc3O2)c1 (centres undefined) | -3.6%
CCOC(=O)c1ccc(NC(=S)NC(=O)C2CCCC2)cc1 | -9.0%
Cc1cccc(C(=O)NCC(=O)N(C)Cc2nc3ccccc3c(=O)[nH]2)c1 | -0.8%
Cc1ccc(CNC(=O)C(=O)NCCC2=CCCCC2)cc1 | 3.5%
Cn1c(N)c(C(=O)COC(=O)c2cc(S(=O)(=O)N3CCCCC3)ccc2Cl)c(=O)n(C)c1=O | -5.1%
O=C(NCCN1CCN(c2ccc([N+](=O)[O-])cc2)CC1)NCc1ccccc1 | -3.1%
O=C(CNS(=O)(=O)c1ccc(Br)cc1)NCc1ccncc1 | -11.9%
Cn1cccc1Cc1nnc(SCC(=O)N2CCOCC2)n1CCc1ccccc1 | 13.4%
CCn1c(-c2ccccn2)nc2cc(S(=O)(=O)N(C)C)ccc21 | 3.3%

Some of these compounds in order of SMILES length, ascending.
Compound | VDR inhibitor
O=C(CNS(=O)(=O)c1ccc(Br)cc1)NCc1ccncc1 | -11.9%
CCn1c(-c2ccccn2)nc2cc(S(=O)(=O)N(C)C)ccc21 | 3.3%
Cn1c(N)c(C(=O)COC(=O)c2cc(S(=O)(=O)N3CCCCC3)ccc2Cl)c(=O)n(C)c1=O | -5.1%

New compounds follow.
Compound | VDR inhibitor
CCOCCCNC(=O)c1ccc(NC(=O)C2CCCO2)cc1 (centres undefined) | -13.9%
O=C(CCSCc1ccc(Cl)cc1)NCc1ccc(F)cc1Cl | 3.7%
Cc1ccccc1-c1nnc(-c2ccccc2C)o1 | -10.8%
C[C@H](NS(=O)(=O)c1ccccc1F)C(=O)OCC(=O)N1CCc2ccccc21 | 5.3%
CCOc1ccc(OCC)c(S(=O)(=O)N2CCCCC2C)c1 (centres undefined) | 17.6%
Clc1ccc(CN2CCN(c3ncnc4sc5c(c34)CCCC5)CC2)cc1Cl | 18.6%
Cc1ccc(S(=O)(=O)N2CCN(C(=O)c3ccc(N4CCCCC4)c([N+](=O)[O-])c3)CC2)cc1 | 6.2%
COC(=O)c1ccc(Nc2cc(C)nc3ncnn23)cc1 | -3.0%
CCOc1ccc(/C=C2\SC(=S)N(C)C2=O)cc1OC | 5.6%
COc1ccc(OCC(=O)Nc2ccc(N3CCOCC3)cc2)c([N+](=O)[O-])c1 | 2.3%

Going on with the list:
Compound | VDR inhibitor
COc1ccc(-c2noc3c2-c2nc(-c4ccccc4F)sc2CC3)cc1 | -1.6%
Oc1ccc(-c2nnc(Nc3cccc(O)c3)c3ccccc23)cc1 | -11.0%
O=C(Nn1cnnc1)c1cc2c(s1)CCCCC2 | -5.0%
CCN(CC)S(=O)(=O)c1ccc(-c2nnc(SCC(=O)Nc3ccc(OC)c(OC)c3)o2)cc1 | -1.5%
Cc1c(C(=O)N(Cc2ccc(N(C)C)cc2)C2CCS(=O)(=O)C2)oc2ccccc12 (centres undefined) | -4.8%&0.9%
COc1cc(C2C(=O)N(C3CCCCC3)CC(=O)N2CCC2=CCCCC2)ccc1OC(C)C (centres undefined) | 5.5%
CC1CCCCN1C(=O)Cn1c(SCC(=O)N(C)c2ccccc2)nc2ccccc21 (centres undefined) | 22.2%
O=C(NNC(=O)C1CCCO1)c1ccc(Br)cc1 (centres undefined) | -16.2%
O=C(Nc1ccc(C(=O)OCc2cc(=O)n3c4c(sc3n2)CCCC4)cc1)c1cccc(F)c1 | -2.6%
S=C1NCCNC(=S)NCCOCCOCCOCCN1 | -2.1%

Additional records
Compound | VDR inhibitor
CCC(=O)N1CCc2cc(S(=O)(=O)NC(CC(C)C)C(=O)NCCc3ccccc3)ccc21 (centres undefined) | -3.8%
O=C(COC(=O)CNC(=O)C1CCCCC1)Nc1ccc2c(c1)OCCO2 | 4.4%
CC(NC(=O)c1ccc(N)cc1)c1ccccc1 (centres undefined) | 4.5%
COc1ccccc1NCCC(=O)OCC(=O)Nc1ccccc1F | -0.5%
O=C(N/N=C/c1c(Cl)cccc1Cl)c1ccccc1F | 7.4%
CC(=O)c1c(O)cc(O)cc1O | 10.2%&-7.6%
O=C(CN1C(=O)/C(=C/c2cccc(Br)c2)SC1=S)Nc1cccnc1 | -10.4%
CNc1ncnc2ccc(-c3cccc(NS(C)(=O)=O)c3)cc12 | 4.2%
COC(=O)c1ccc(C(=O)OC)c(NC(=O)COC(=O)C23CC4CC(CC(O)(C4)C2)C3)c1 | -14.4%
CCc1ccc(NC(=O)CNC(=O)[C@@H]2Cc3ccccc3CN2C(=O)OC(C)(C)C)cc1 | -0.9%

Additional compounds follow:
Compound | VDR inhibitor
COc1cccc(CN(C)C(=O)CN2C(=O)NC(c3ccccc3)(c3ccccc3)C2=O)c1 | -8.9%
CC(C)(C)c1ccc(C(=O)Nc2ccc(C=C(C#N)C#N)cc2)cc1 | ?
CCOc1ccccc1OCCNC1CCCC1 | -4.8%
O=C(O)/C=C\c1ccc(O)c(O)c1 | 0.7%
CSCCC(NC(=O)c1ccccc1)C(=O)OCC(=O)NCc1ccco1 (centres undefined) | -7.0%
c1ccc(-c2nnc(OCCN3CCOCC3)c3ccccc23)cc1 | 0.5%
CCOc1ccc(/C=N\NC(=O)CC(=O)NCCc2ccccc2)cc1 | -20.7%
COc1cccc(C2(O)CCN(C(=O)c3cccs3)CC2)c1 | -5.9%
Cc1noc(C)c1-c1nc(CS(=O)(=O)c2ccccc2)no1 | 6.3%
C=C(C)CSc1ncc(-c2cccc(C(F)(F)F)c2)cn1 | 0.8%

The list continues:
Compound | VDR inhibitor
CSc1ccc(-c2nc3cccc(C)n3c2Nc2ccc3c(c2)OCO3)cc1 | -5.3%
CCOc1cc(C(C#N)N2CCOCC2)ccc1OC (centres undefined) | 0.2%
O=C(CSc1nnc(-c2ccco2)n1CC1CCCO1)NC1CCCC1 (centres undefined) | -5.7%
Cc1ccc(NC(=O)Cn2cnc3ccccc32)cc1C | ?
CC(=O)Nc1ccccc1-c1nc2ccccc2n(CC(=O)Nc2cccc(C)c2C)c1=O | 4.8%
Cc1ccc(C)c(NC(=S)N/N=C2\CCc3ccccc32)c1 | -17.8%
CC(=O)N1CCc2cc(S(=O)(=O)NC(CC(C)C)C(=O)Nc3ccc(C(C)C)cc3)ccc21 (centres undefined) | -7.8%
CC(NCC(=O)Nc1ccccc1C(=O)NC1CC1)c1ccc(S(C)(=O)=O)cc1 (centres undefined) | 6.6%
Cc1cccc(OCCn2c(-c3ccco3)nc3ccccc32)c1 | -8.8%
COc1ccc(/C(C)=N/N=C2/NC(=O)CC(C(=O)O)S2)cc1F (centres undefined) | -5.3%

Copied from the list.
Reading for `CC(=O)Nc1ccccc1-c1nc2ccccc2n(CC(=O)Nc2cccc(C)c2C)c1=O` under VDR inhibitor: 4.8%
Reading for `CC(NCC(=O)Nc1ccccc1C(=O)NC1CC1)c1ccc(S(C)(=O)=O)cc1` (centres undefined) under VDR inhibitor: 6.6%
Reading for `CSc1ccc(-c2nc3cccc(C)n3c2Nc2ccc3c(c2)OCO3)cc1` under VDR inhibitor: -5.3%

Continuation:
Compound | VDR inhibitor
C/C(CC(=O)Nc1ccc(Cl)c(C(F)(F)F)c1)=N\NC(=O)c1cc2ccccc2cc1O | 9.4%
CCN1CCN(Cc2ccc(NC(=O)Nc3ccccc3OC)cc2)CC1 | 0.1%
O=C(CNc1ccc2ccccc2c1)N/N=C/c1cc2ccccc2nc1Cl | 1.1%
Cc1ccccc1NC(=S)N1CCCC1 | -2.4%
COC(=O)[C@@]1(Cc2ccccc2)[C@H]2C(=O)N(C)C(=O)[C@H]2[C@H]2CN=C(SCc3ccc(C)cc3)N21 | 16.8%
O=S(=O)(c1cccc(-c2cn3cc(Cl)ccc3n2)c1)N1CCOCC1 | 11.8%
O=C1C(=O)N(Cc2ccco2)C(c2cccs2)/C1=C(\O)c1cccc([N+](=O)[O-])c1 (centres undefined) | -23.9%
O=C(NC1=NCCS1)c1nc(-c2ccccc2)n(-c2ccccc2)n1 | 9.8%
O=C(NC1CCCCC1)c1ccc(COCC(F)(F)F)o1 | -5.0%
Cc1cc(-c2n[nH]c(=S)n2/N=C/C(Br)=C/c2ccccc2)n[nH]1 | ?

Continued:
Compound | VDR inhibitor
COc1cccc(N2CCN(S(=O)(=O)c3cn(C)c(C)n3)CC2)c1 | 14.5%
COc1ccc(CN(C)CC(=O)N2CCc3ccccc3C2)cc1 | -4.2%
CC(=O)C1=C(C)Nc2ncnn2C1c1ccccc1OCc1ccccc1 (centres undefined) | 3.0%
COc1ccc2c(c1)CCCN2C(N)=O | 7.1%
CCOc1ccccc1C=NN=Cc1ccccc1O | -18.7%
Cc1ccc(C)c(N2CC(O)(c3cccs3)[N+]3=C2CCCC3)c1 (centres undefined) | 12.7%
CCOC(=O)C1=C(O)C(=O)N(Cc2cccnc2)C1c1ccc(C)cc1 (centres undefined) | -3.7%
COc1ccc(CCC(=O)NC2=NCCS2)cc1OC | -2.0%
CCOc1cc(C(=O)Nc2cc3c(cc2N2CCCC2)n(C)c(=O)c(=O)n3C)cc(OCC)c1OCC | 3.3%
COc1ccccc1CNC(=O)C/C(C)=N/NC(=O)Cc1ccc(Cl)cc1 | -10.2%

Additional structures:
Compound | VDR inhibitor
COC(=O)c1c(-c2ccccc2OC)sc2ccccc12 | -5.8%
Cc1ccn(C(C)CC(=O)Nc2ccc(-c3ccno3)cc2)n1 (centres undefined) | -13.3%
CC(NC(=O)CN(C)CC(=O)Nc1ccc(Cl)c(C(F)(F)F)c1)c1ccccc1 (centres undefined) | -9.8%
Cc1ccc(S(=O)(=O)NC(C)(C)CSc2ccccn2)cc1 | -5.9%
O=C(c1ccc(-n2cccn2)cc1)N1CCc2ccccc2C1 | 12.2%
COc1ccc(C)cc1NC(=O)CCCN1C(=O)CCC1=O | -2.6%
Cc1cc(C)cc(N(C(=O)c2csnn2)C(C(=O)NC(C)(C)C)c2ccncc2)c1 (centres undefined) | 5.0%
